Assay outcomes deposited in PubChem by National Center for Advancing Translational Sciences (NCATS).
RE007 growth inh – less growth of the S. pombe RE007 Vpr strain. S. pombe RE007 Vpr strain, BacTiter-Glo ATP luminescence, 24 h; control for the full effect not named in the record. Potency, µM (doses to about 92.2 µM), for inactives: at the top dose activity change, negative = less growth. 0.21% of 360,000 active; active = well fitted falling curve with a large enough effect; inconclusive = small, poorly fitted or top-dose-only effect; inactive = no such curve, though single readings can be large or run the other way;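 note: % is set by controls: 0 for no effect and ±100 for the full control effect; nearly all actives have a fitted effect of over 50% in size; the assay follows cell death caused by Vpr and the record does not say whether a fall means rescue or toxicity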
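Fission yeast RE007 carrying one integrated HIV-1 vpr copy, seeded at OD 0.01 in PMG+AL medium with 23 nL pinned compound. Grown 24 h at 30 degrees; viability read by BacTiter-Glo luminescence after 5 min.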
Cruzain inh noDet – cruzain (T. cruzi) inhibition without detergent; P25779; purified cruzain, Z-FR-AMC fluorescence, no detergent; Potency, µM, inactives show max response, negative = inhibition, actives largely listed as inhibitors; 2.3% of 200,000 active;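 note: plate controls were enzyme without inhibitor for no effect and buffer without enzyme for full effect; nearly all actives have a fitted effect of over 40% in size; top concentration of the series not given in the record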
Target sequence (P25779 123-467 limits assumed): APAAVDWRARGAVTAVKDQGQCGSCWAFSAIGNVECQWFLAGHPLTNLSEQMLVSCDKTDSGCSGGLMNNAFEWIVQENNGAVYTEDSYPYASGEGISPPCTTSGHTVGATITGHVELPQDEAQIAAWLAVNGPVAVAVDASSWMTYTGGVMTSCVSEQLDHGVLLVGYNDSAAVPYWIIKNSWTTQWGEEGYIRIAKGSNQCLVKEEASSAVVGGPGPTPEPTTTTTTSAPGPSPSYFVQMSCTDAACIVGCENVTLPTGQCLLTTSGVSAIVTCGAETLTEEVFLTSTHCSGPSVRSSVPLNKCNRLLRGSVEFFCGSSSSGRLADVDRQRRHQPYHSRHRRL
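Purified cruzain at 1.5 nM, pre-incubated 15 min with compound at room temperature in 100 mM sodium acetate pH 5.5, 5 mM DTT, 0.00005% Triton X-100. Reaction started with 2 uM Z-FR-AMC; AMC fluorescence increase over 60 s gives rate.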
2A StopGo – FMDV 2A StopGo reporter, luciferase signal. human cells with a luciferase reporter of 2A StopGo recoding; control for the full effect not named in the record. Potency, µM (top dose mostly 57.9 µM), for the others: at the highest dose signal change, negative = less light. 1.2% of 410,000 active; active = well fitted falling curve with a large enough effect; inconclusive = small, poorly fitted or top-dose-only effect; inactive = no such curve, though single readings can be large or run the other way; tested in HEK293T cells; note: % is set by controls: 0 for no effect and ±100 for the full control effect; nearly all actives have a fitted effect of over 45% in size; luciferase light after 4 h
NS1 function inh – influenza NS1 inhibition | S. cerevisiae slowed by influenza A NS1, growth recovery by OD600 | 0.4% of 270,000 active | Potency, µM (top dose mostly 46.1 µM), without a hit: at the highest dose activity, positive = more growth; active means well fitted rising curve with a large enough effect; inconclusive means small, poorly fitted or top-dose-only effect; inactive means no such curve, though single readings can be large or run the other way; note: nearly all actives have a fitted effect of over 50% in size
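S. cerevisiae expressing influenza A NS1, grown in glucose, washed, then diluted 1:100 into pH 6.0 -URA galactose medium with 23 nl compound. Growth recovery read as OD600; NS1-free strain serves as control.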
Cruzain inh Det – blocks cruzain activity in presence of Triton detergent. P25779. Potency, µM, inactives show max response, negative = inhibition, most hits filed as inhibitors. AID 1478. purified cruzain, Z-FR-AMC fluorescence, 0.01% Triton. 0.43% of 200,000 active;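 note: plate controls were neutral wells for no effect and buffer without enzyme for full effect; nearly all actives have a fitted effect of over 40% in size; top concentration of the series not given in the record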
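Enzyme 1.5 nM, Z-FR-AMC 2 uM, NaOAc 100 mM pH 5.5, DTT 5 mM, Triton X-100 0.01%; 15 min RT compound preincubation; kinetic ex360/em450, 60 s delta.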
LASV entry inh – Lassa virus entry inhibition. Lassa virus pseudotype entry inhibition, cell reporter; control for the full effect not named in the record. Potency, µM (series often up to 37.9 µM), inactives show at the top dose activity change, negative = inhibition, most hits filed as inhibitors. 1.2% of 300,000 active; active means well fitted inhibition curve with a large enough effect; inconclusive means small, poorly fitted or top-dose-only effect, or effect the other way; inactive means flat fitted curve, though single readings scatter; tested in HEK293 cells; note: % is set by controls: 0 for no effect and ±100 for the full control effect; nearly all actives have a fitted effect of over 50% in size; luciferase read-out
SARS PLP yeast – blocks SARS-CoV papain-like protease in a yeast assay; Potency, µM (series often up to 32.9 µM), for inactives: top-dose activity, positive = growth rescue; S. cerevisiae expressing SARS-CoV PLpro, growth rescue; control for the full effect not named in the record; 0.19% of 330,000 active; active means well fitted rising curve with a large enough effect; inconclusive means small, poorly fitted or top-dose-only effect; inactive means no such curve, though single readings can be large or run the other way; note: 0% is about no effect; nearly all actives have a fitted effect of over 55% in size; growth read by luminescence after 48 h
MARV entry inh – inhibitors of Marburg virus binding or cell entry; Marburg virus pseudotyped entry inhibition, cell reporter; control for the full effect not named in the record; about a third of the inactives were read at about 46 µM; Potency, µM (top dose mostly 37.8 µM), for inactives: at the highest dose activity change, negative = inhibition, actives largely listed as inhibitors; 1.8% of 300,000 active; active = well fitted inhibition curve with a large enough effect; inconclusive = small, poorly fitted or top-dose-only effect, or effect the other way; inactive = flat fitted curve, though single readings scatter; tested in HEK293 cells; about a fifth of its hits are not listed in these tables; note: % is set by controls: 0 for no effect and ±100 for the full control effect; luciferase read-out
Numbers without * were called inactive; ? = inconclusive; · = not tested or not shown; & = joins results of further samples; [ ] = another dose, or the depositor's remark. Unless noted, calls come from the whole dose curve; as a rule, active = well fitted curve in the direction sought with a large enough effect; inconclusive = small, poorly fitted or top-dose-only effect, or another doubt; inactive = no such curve, though single readings can be large; an effect the other way counts as inactive or inconclusive. Potency is the fitted concentration of half-maximal effect.

#1 CN1CCCC(OC(=O)COc2ccccc2)C1 (stereo unspecified)
#2 CC(=O)N1CCc2cc(S(=O)(=O)NC(CC(C)C)C(=O)NCc3ccccc3)ccc21 (stereo unspecified)
#3 Cc1cc2nc(SCCN3CCOCC3)[nH]c2cc1C
#4 COc1cccc(CSCC(=O)NCCc2ccccc2)c1OC
#5 COC(=O)C1C(=O)C2=C(CC1C)NC(=O)CC2c1ccc(O)c(OC)c1 (stereo unspecified)
#6 Cc1[nH]c2ccccc2c1CCCO
assay / compound,1,2,3,4,5,6
LASV entry inh,18%,5%[46.1 µM],?,0%,10%,3%[46.1 µM]
SARS PLP yeast,3%,·,-41%,1%,5%,-1%
RE007 growth inh,7%,·,8%,-9%,-1%,1%
Cruzain inh Det,0.5%,-3.5%,-3.0%,·,0.4%,·
2A StopGo,16%,8%,9%,8%,-14%,10%
NS1 function inh,-2%,·,-1%,-33%,0%,0%
MARV entry inh,-3%,-14%[46.1 µM],?,4%[46.1 µM],3%,-3%[46.1 µM]
Cruzain inh noDet,13%,7%,5%,·,-6%,·

#7 CC1CCCN(CCC(=O)Nc2ccccc2)C1 (stereo unspecified)
#8 COc1cccc(-c2nn3c(=O)cc(CN4CCN(C(=O)/C=C/c5ccccc5)CC4)nc3s2)c1
#9 COc1ccc(CCNc2nc(SCc3ccccc3F)nc3ccccc23)cc1OC
#10 CCCCN1CC(=O)N2[C@H](c3ccc(OC)cc3)[C@@H]3C(=O)N(CC)C(=O)[C@@H]3[C@]2(Cc2ccccc2)C1=O
#11 CO/N=C/CC(=O)c1ccc(-c2ccccc2)cc1
#12 CS(=O)(=O)N(CC(=O)Nc1ccc(S(=O)(=O)N2CCCC2)cc1)c1ccccc1F
assay / compound,7,8,9,10,11,12
LASV entry inh,8%,-13%[46.1 µM],8%[46.1 µM],·,-17%[46.1 µM],?
SARS PLP yeast,1%,·,·,-2%,-4%,?
RE007 growth inh,7%,·,·,-9%,-16%,6%
Cruzain inh Det,·,0.9%,-1.5%,·,·,-2.3%
2A StopGo,7%,1%,0%,-6%,9%,-16%
NS1 function inh,4%,·,·,-5%,-31%,9%
MARV entry inh,-6%[46.1 µM],·,·,·,-6%[46.1 µM],-2%
Cruzain inh noDet,·,0%,8%,·,·,12%

Shown tab-delimited: part of the list above
#	molecule	LASV entry inh	SARS PLP yeast	RE007 growth inh	Cruzain inh Det	2A StopGo	NS1 function inh	MARV entry inh	Cruzain inh noDet
8	COc1cccc(-c2nn3c(=O)cc(CN4CCN(C(=O)/C=C/c5ccccc5)CC4)nc3s2)c1	-13%[46.1 µM]	·	·	0.9%	1%	·	·	0%
9	COc1ccc(CCNc2nc(SCc3ccccc3F)nc3ccccc23)cc1OC	8%[46.1 µM]	·	·	-1.5%	0%	·	·	8%

Continuation.
#13 O=C(CSc1nnc2ccccn12)c1ccc(OC(F)F)cc1OC(F)F
#14 CCc1c(C)nc(SCC(N)=O)c(C#N)c1C
#15 CCN1C(=NCc2ccc(OC)cc2)N[C@@H](c2ccccc2)C(C(=O)OC)=C1C
#16 CC(OC(=O)c1cccc(S(=O)(=O)Nc2ccccc2F)c1)C(=O)NCc1ccc2c(c1)OCO2 (stereo unspecified)
#17 O=C1CCC(O)CCN1CCSc1ccccc1 (stereo unspecified)
#18 O=C(CSc1nc2ccccc2c(=O)n1CC1CCCO1)N1CCN(c2ccccc2)CC1 (stereo unspecified)
assay / compound,13,14,15,16,17,18
LASV entry inh,11%,8%,·,-15%,·,0%
SARS PLP yeast,-5%,7%,-2%&2%,11%,7%,·
RE007 growth inh,-3%,-5%,4%,1%,7%,14%
Cruzain inh Det,-0.6%,2.5%,·,-3.9%,·,·
2A StopGo,32%[activator],·,-23%,14%,54%[activator],?
NS1 function inh,-6%,6%,-4%&-7%,-15%,20%,-2%
MARV entry inh,3%,8%,-22%[14.2 µM],-27%,·,4%
Cruzain inh noDet,-15%,-1%,·,17%,·,·

#19 COC(=O)Cc1cnc(NC(=O)CSc2nc(C(C)C)cc(=O)[nH]2)s1
#20 NNC(=O)COc1ccccc1[N+](=O)[O-]
#21 O=S(=O)(CCc1ccccc1)CS(=O)(=O)CCc1ccccc1
#22 Cc1nc2cc(C(=O)O)ccc2n1-c1ccccc1
#23 Cc1cc(NC(=O)c2ccc(S(=O)(=O)N(C)C)cc2)no1
#24 CCCC1(CCC)NC(=O)N(CC(=O)Nc2ccc(Cl)c(S(=O)(=O)N3CCOCC3)c2)C1=O
assay / compound,19,20,21,22,23,24
LASV entry inh,·,1%,-1%[46.1 µM],·,14%,?
SARS PLP yeast,10%,-1%,·,-3%,2%,-12%
RE007 growth inh,12%,6%,4%,16%,5%,3%
Cruzain inh Det,·,·,·,1.6%,2.4%,·
2A StopGo,-2%,-4%,1%,-7%,28%,?
NS1 function inh,0%,2%,·,11%,4%,·
MARV entry inh,3%[46.1 µM],-1%,8%[46.1 µM],·,13%,?
Cruzain inh noDet,·,·,·,2%,2%,·

Next section (four carried over from the part before).
#21 O=S(=O)(CCc1ccccc1)CS(=O)(=O)CCc1ccccc1
#22 Cc1nc2cc(C(=O)O)ccc2n1-c1ccccc1
#23 Cc1cc(NC(=O)c2ccc(S(=O)(=O)N(C)C)cc2)no1
#24 CCCC1(CCC)NC(=O)N(CC(=O)Nc2ccc(Cl)c(S(=O)(=O)N3CCOCC3)c2)C1=O
#25 Cc1nc2nc(SCC(=O)N3CCOCC3)nn2c(C)c1Cc1ccccc1
#26 COc1ccc2c(c1)c1c(c(=O)n(-c3ccc(OC)c(OC)c3)c(=O)n1CC(=O)N1CCCC1)n2C
#27 CCCN1CCN(C(=O)c2cc(COc3ccc4ncccc4c3)on2)CC1
#28 CCc1ccc(-c2nc(CN3CCCC(C(=O)NCc4ccc(C)cc4)C3)c(C)o2)cc1 (stereo unspecified)
#29 COc1ccc(-n2c(=S)[nH]c3cc(C(=O)Nc4ccc(F)cc4)ccc3c2=O)c(OC)c1
#30 CCCS(=O)(=O)N1CCC(C(=O)NCc2ccc(F)cc2)CC1
assay / compound,21,22,23,24,25,26,27,28,29,30
LASV entry inh,-1%[46.1 µM],·,14%,?,7%,1%[46.1 µM],·,?,?,6%
SARS PLP yeast,·,-3%,2%,-12%,2%,·,2%,·,3%,25%
RE007 growth inh,4%,16%,5%,3%,12%,·,-5%,·,-8%,5%
Cruzain inh Det,·,1.6%,2.4%,·,2.4%,3.5%,·,-1.2%,·,1.0%
2A StopGo,1%,-7%,28%,?,23%,3%,?,?,?,-13%
NS1 function inh,·,11%,4%,·,0%,·,19%,·,13%,5%
MARV entry inh,8%[46.1 µM],·,13%,?,15%&15%,·,·,-2%[46.1 µM],?,22%
Cruzain inh noDet,·,2%,2%,·,10%,-13%,·,-2%,·,0%

#31 Cc1ccc(S(=O)(=O)NCC(=O)N(CC(=O)NCc2ccco2)Cc2cccs2)cc1
#32 CCc1n[nH]c(=S)n1/N=C/C(C)=C\c1ccccc1
#33 Cc1ccc(N2C(=O)C(CC(=O)Nc3cccc(F)c3)N(CCc3ccccc3F)C2=O)cc1 (stereo unspecified)
#34 O=C(O)c1cc(NC(=O)C2CCCO2)cc(C(=O)O)c1 (stereo unspecified)
#35 COc1ccc(NC(=S)Nc2cc(-c3ccccc3)[nH]n2)cc1Cl
#36 O=C(O)C1C2CCC(C2)C1C(=O)Nc1ccccc1 (stereo unspecified)
assay / compound,31,32,33,34,35,36
LASV entry inh,-2%,·,-12%[46.1 µM],·,?,?
SARS PLP yeast,1%,14%,·,-6%,-16%,·
RE007 growth inh,-15%,-1%,·,25%,-2%,15%
Cruzain inh Det,1.5%,·,-8.4%,·,-21%,·
2A StopGo,6%,0%,38%[activator],-7%,-22%,7%
NS1 function inh,-8%,-2%,·,-15%,11%,·
MARV entry inh,-14%,·,?,·,16%,-17%
Cruzain inh noDet,-12%,·,0%,·,0%,·

#37 COc1ccc(OCC#CCN2CCNCC2)cc1
#38 Cc1ccc(CNC(=O)c2ccc(OCC(C)C)cc2)n1C
#39 CCN(CC(=O)NCc1ccc(F)cc1)Cc1cc(=O)n2ccsc2n1
#40 Cc1cc(Cl)ccc1OCC(=O)Nc1cccc(S(=O)(=O)NC2=NCCCCC2)c1
#41 Nn1c(COc2ccccc2)nc2ccccc2c1=O
#42 COc1cc(/C=N/NC(=O)c2[nH]nc3c2CCc2ccccc2-3)ccc1O
assay / compound,37,38,39,40,41,42
LASV entry inh,·,7%[46.1 µM],17%[46.1 µM],7%,2%,-29%
SARS PLP yeast,-6%,0%,1%,0%,5%,-6%
RE007 growth inh,3%,3%,-20%,1%,15%,-4%
Cruzain inh Det,·,·,·,·,4.2%,-10%
2A StopGo,15%,0%,-3%,-24%,8%,0%
NS1 function inh,-9%,5%,·,·,-8%,10%
MARV entry inh,·,-3%[46.1 µM],3%[46.1 µM],?,17%,-35%
Cruzain inh noDet,·,·,·,·,-5%,15%

#43 CCCn1nnc(NC(=O)Cc2ccc(Cl)cc2)n1
#44 O=C(CSc1cccc[n+]1[O-])Nc1cc([N+](=O)[O-])ccc1Cl
#45 Cc1ccc(-c2cnc3c(Cl)c(C)nn3c2)cc1
#46 COc1ccc(N(Cc2cc(=O)[nH]c3ccccc23)C(=O)c2ccco2)cc1
#47 CCOC(=O)N/N=C\C=C\c1ccco1
#48 COc1ccc(-n2nnnc2SCC(=O)Nc2ccccc2F)cc1
assay / compound,43,44,45,46,47,48
LASV entry inh,-6%,-4%,?,0%,?,·
SARS PLP yeast,5%,-2%,-2%,9%,-5%,2%
RE007 growth inh,12%,-6%,6%,0%,9%,-7%
Cruzain inh Det,-2.1%,·,·,6.0%,-5.4%,·
2A StopGo,·,-1%,-54%,38%[activator],17%,5%
NS1 function inh,-7%,·,·,0%,14%,-8%
MARV entry inh,3%,1%,?,0%,20%[46.1 µM],·
Cruzain inh noDet,18%,·,·,-6%,17%,·
